Compound activity from PubChem.
Mtb H37Rv: M. tuberculosis H37Rv growth inhibitors, H37Rv strain (AID 1626). 220,000 tested, 0.95% active. M. tuberculosis H37Rv growth inhibition; higher % means a stronger effect. one-dose inhibition, % at 10 µM; IC50 in µM for titrated hits;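 active = confirmed in a dose series; inconclusive = inhibition above 80% but not taken into the dose series; inactive = below 80% or under 30% at every dose of the series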;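 note: bacteria incubated seven days before Alamar blue readout; 0% = bacteria only wells and 100% = bacteria with antibiotic wells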
RecA intein inh: inhibitors of M. tuberculosis RecA intein splicing; P9WHJ3; cell-free RecA intein splicing, fluorescence; inhibition, %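 (about 9 µM by stock and volumes)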; 290,000 tested, 0.75% active; in the data active = inhibition above about 30%; inconclusive = no clear call, values can overlap the other calls;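 note: 0% = vehicle wells and 100% = reference inhibitor control wells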
Target sequence (P9WHJ3 whole entry, looked up): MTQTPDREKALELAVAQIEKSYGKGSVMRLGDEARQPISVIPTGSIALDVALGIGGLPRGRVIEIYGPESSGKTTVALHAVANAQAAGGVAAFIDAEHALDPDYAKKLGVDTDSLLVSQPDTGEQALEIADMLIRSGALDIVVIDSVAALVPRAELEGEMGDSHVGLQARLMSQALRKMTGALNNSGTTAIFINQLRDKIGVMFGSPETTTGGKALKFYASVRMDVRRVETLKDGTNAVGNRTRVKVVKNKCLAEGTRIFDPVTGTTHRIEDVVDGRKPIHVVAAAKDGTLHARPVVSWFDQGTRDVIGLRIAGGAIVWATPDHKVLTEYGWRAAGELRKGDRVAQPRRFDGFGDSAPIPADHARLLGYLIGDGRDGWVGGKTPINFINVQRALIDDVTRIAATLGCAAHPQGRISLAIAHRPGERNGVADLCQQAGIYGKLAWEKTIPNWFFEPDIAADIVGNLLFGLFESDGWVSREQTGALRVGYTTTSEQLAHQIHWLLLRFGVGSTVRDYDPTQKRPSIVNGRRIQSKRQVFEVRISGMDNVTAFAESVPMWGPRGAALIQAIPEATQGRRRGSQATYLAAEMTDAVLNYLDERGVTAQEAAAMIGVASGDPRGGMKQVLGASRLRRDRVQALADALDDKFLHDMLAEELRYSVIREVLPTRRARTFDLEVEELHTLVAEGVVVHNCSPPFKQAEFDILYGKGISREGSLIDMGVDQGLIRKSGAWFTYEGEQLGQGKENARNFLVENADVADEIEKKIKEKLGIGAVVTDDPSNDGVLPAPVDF
Arbovirus anti: blocks arbovirus infection. AID 1251. arbovirus infection cell-based antiviral screen. 200,000 tested, 0.37% active. inhibition, % at 10 µM;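 active = inhibition from about 30%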;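 note: bluetongue infection of BSR cells; cell survival read as ATP light after 72 h; 0% = infected wells without compound and 100% = uninfected wells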
Mtb betalactam: beta-lactam sensitization of Mtb H37Rv. M. tuberculosis H37Rv growth with meropenem, percent inhibition; hits of this screen are not shown here. inhibition, % at 25 µM. 330,000 tested, 0.27% active. AID 434955;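 active = about 74% or more and at least 40 points above the plate without the antibiotic, then above 30% in a dose series; inconclusive = first-round hits that could not be retested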;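 note: growth measured after seven days incubation then overnight dye step; 0% = bacteria only wells and 100% = bacteria with antibiotic; twin plates without the antibiotic show which effects depend on it; some results filed as inactive read as strong as hits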
YopH PTP inh: blocks Yersinia enterocolitica YopH tyrosine phosphatase | fluorescence Ex485/Em525 | inhibition, %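 (about 10 µM by stock and volumes)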 | 140,000 tested, 0.16% active;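 active = inhibition of 50% or more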;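 note: controls were vehicle for no effect and minimum signal wells for full effect; inactives centre near -20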
The depositor's hits bear a star; u = inconclusive; x = not tested or not shown. Some of the compounds tested. The share of hits here may be higher or lower than overall.

SMILES	Mtb H37Rv	RecA intein inh	Arbovirus anti	Mtb betalactam	YopH PTP inh
O=[N+]([O-])c1cccc(N/N=C/c2ccc(N3CCOCC3)cc2)c1	x	0.8	x	74	x
COc1ccc(-c2noc(COc3ccc4c(c3)OCO4)n2)cc1	11%	1.0	-2	0	-22
COc1ccc2c(c1)cc1n2CCN2CCCN=C12	-1%	-2.2	-4	1	-35
CC1CC(C)CN(CC(=O)Nc2ccc3c(c2)OCCO3)C1 (stereo not given)	-6%	x	-4	-1	4
COc1ccc(CCNC(=O)c2nc(-c3cccs3)no2)cc1OC	-1%	-1.6	1	-5	x
CC(C)(C)c1cccc(/C=N/O)c1O	-14%	1.3	17	-12	-13
COc1cc(CC(C)N)c(OC)cc1I (stereo not given)	-7%	-1.6	x	1	x
COc1cccc(CNC(=O)Cc2csc(Nc3nc(=S)[nH]c4ccccc34)n2)c1	-1%	11	-10	16	x
COc1ccc(CN(C)C(=O)c2ccc(NC(=O)CC3SC(N4CCCC4)=NC3=O)cc2)c(OC)c1OC (stereo not given)	x	-2.1	x	-12	x
CCOC(=O)N1CCN(Cc2nc(C3CC3)no2)CC1	-8%	-0.2	0	3	x
CC1(C)CC(=O)C2=C(C1)NC(Nc1nc3ccccc3o1)=NC2c1ccccn1 (stereo not given)	u	-4.3	4	91	x
CCC(C)NC(=O)CSc1nnc(-c2ccc(OC)c(OC)c2)c(-c2ccc(OC)c(OC)c2)n1 (stereo not given)	x	3.5	x	-2	x
Cc1cc(/C=N/NC(N)=S)c(C)n1-c1ccc(Cl)c(Cl)c1	u	-1.0	-7	94	-14
Cc1ccc(S(=O)(=O)N2CCN(C)CC2)cc1[N+](=O)[O-]	-4%	-4.3	3	-2	-29
CCn1ccnc1CN(C)Cc1cn(-c2ccccc2)nc1-c1ccc(OC)cc1F	15%	-11	1	49	x
COc1ccc(NC(=O)CSc2nc3ccccc3cc2Cc2ccccc2)cc1	-2%	-1.2	-7	0	-14
COC(=O)C1CC(=O)c2sccc2C1 (stereo not given)	3%	0.1	-6	2	-2
O=C(O)C(Cc1ccccc1)N1Cc2ccccc2C1=O (stereo not given)	-14%	2.3	-1	-4	-20
Cc1noc(C)c1C(=O)N1CCCC(C(=O)c2cccc(C(F)(F)F)c2)C1 (stereo not given)	4%	2.4	10	-12	x
COc1cccc(OC)c1C(=O)Nc1ccc2nc(C)c(C)nc2c1	x	-1.9	x	-7	x
O=S(=O)(NCCSc1nnnn1-c1ccccc1)c1cccs1	-2%	-7.8	-1	-10	27
COc1cc(C2Nc3c(F)cccc3C3C=CCC32)cc(Br)c1OC (stereo not given)	7%	3.0	4	-6	x
COCCN(CCOC)c1nc(S(=O)(=O)c2ccc(C)cc2)c(Cl)s1	-2%	2.9	-6	3	-27
COC(=O)C1=NNC2(C)C(=O)N(c3ccc(C)cc3)C(=O)C12 (stereo not given)	-3%	0.1	x	-10	x
NCCCC[C@@H]1NC(=O)c2cc([N+](=O)[O-])cc(I)c2SC[C@@H](C(N)=O)NC(=O)[C@H](CCC(N)=O)NC1=O	-4%	1.3	0	-9	24
COc1ccc(Cc2c[nH]c(=O)[nH]c2=O)cc1	-6%	-0.9	2	-11	-43
CC1CN(C(=O)c2cc(F)c(F)cc2Cl)CC(C)O1 (stereo not given)	-4%	-1.0	x	-6	6
COC(=O)C1=C(C)Nc2c(c(=O)n(C)c(=O)n2C)C1c1ccc(C)cc1 (stereo not given)	0%	-1.3	12	-4	x
CCCCN(CC)Cc1ccc(CNC(=S)Nc2ccccc2F)o1	-3%	-2.2	-2	-8	x
COC(=O)c1ccc(C(=O)OC)c(NC(=O)COC(=O)c2ccccc2OC)c1	6%	-2.6	-3	8	-4
C=CCSc1nc2c(sc3nc(C)cc(C)c32)c(=O)[nH]1	0%	-2.2	65*	7	-28
Cc1cc(C)c(S(=O)(=O)N2CCCCC2CCNC(=O)C(=O)NCCN2CCOCC2)c(C)c1 (stereo not given)	x	1.7	x	-12	x
COc1ccc(C2C(C(=O)c3sc(C)nc3C)=C(O)C(=O)N2CCN2CCOCC2)cc1 (stereo not given)	9%	-1.7	-2	x	-30
Cc1cc(C)c(S(=O)(=O)Nc2cc(SCC(=O)O)c(O)c3ccccc23)cc1C	12%	97*	-47	3	9
O=C(CSCc1cnn(-c2ccccc2)c1-n1cccc1)N1CCN(Cc2ccccc2)CC1	-5%	0.0	-5	-9	-18
COc1ccccc1N(CC(=O)Nc1cccc(C(F)(F)F)c1)S(C)(=O)=O	-3%	-21	2	-7	x
COc1ccc(CN(C(=O)CNC(=O)c2ccco2)C(C(=O)NC2CCCC2)c2ccco2)cc1 (stereo not given)	-2%	2.5	-5	-11	-15
O=C(Cc1ccc(Cl)cc1)N1CCC2(CC1)NCCc1[nH]cnc12	x	-3.1	x	-8	x
Cc1ccc(NC2=Nc3ccccc3CC2)cc1	10%	0.4	3	16	-27
Cc1cccc([C@@H]2[C@@H]3C(=O)N(C)C(=O)[C@@H]3[C@@H]3C(=O)Nc4ccccc4C(=O)N23)c1	x	-5.6	x	-6	x

Single records (already shown).
COc1ccc(-c2noc(COc3ccc4c(c3)OCO4)n2)cc1 as listed: Mtb H37Rv: 11%; RecA intein inh: 1.0; Arbovirus anti: -2; Mtb betalactam: 0; YopH PTP inh: -22
C=CCSc1nc2c(sc3nc(C)cc(C)c32)c(=O)[nH]1 as listed: Mtb H37Rv: 0%; RecA intein inh: -2.2; Arbovirus anti: 65*; Mtb betalactam: 7; YopH PTP inh: -28
CC1(C)CC(=O)C2=C(C1)NC(Nc1nc3ccccc3o1)=NC2c1ccccn1 (stereo not given) as listed: Mtb H37Rv: u; RecA intein inh: -4.3; Arbovirus anti: 4; Mtb betalactam: 91; YopH PTP inh: x

Next entries follow:
SMILES	Mtb H37Rv	RecA intein inh	Arbovirus anti	Mtb betalactam	YopH PTP inh
O=C(c1ccc2c(c1)OCO2)C1CCCN(Cc2ccccc2OC(F)F)C1 (stereo not given)	x	4.4	x	5	x
Cc1cccc2c(N=Nc3ccccc3)c(O)[nH]c12	x	0.5	x	-4	x
Cc1ccc2c(CC(=O)OCn3nnc4ccccc4c3=O)coc2c1	-4%	3.8	1	68	-38
CCCn1c(Oc2ccccc2)nc2c1c(=O)n(C)c(=O)n2C	x	-1.5	x	-13	x
COc1ccc(CC(CN)c2ccccc2)cc1 (stereo not given)	x	4.9	x	-4	x
C#CCOc1ccc(C2C3=C(COC3=O)Nc3cc4c(cc32)OCO4)cc1OC (stereo not given)	5%	-1.4	-9	x	x
Cc1ccc(-c2cc(C(=O)Nc3ccc(S(=O)(=O)Nc4onc(C)c4C)cc3)[nH]n2)c(O)c1	-3%	-1.0	x	1	x
COc1ccc(/C=C/c2ccc3cccc(O)c3n2)cc1Br	x	1.1	x	78	x
CC(=O)Oc1c(S(=O)(=O)c2ccc(C)cc2)c(C)nn1C(C)(C)C	1%	7.1	0	-3	-41
CCCc1c(C(=O)N/N=C(\C)CCc2ccc(OC)cc2)nnn1-c1nonc1N	x	-2.6	x	5	x
O=C(Nc1ccccc1)c1cc(Cl)nc2ccccc12	-1%	1.0	4	-2	-19
Cn1c(=O)c(C(=O)NC2CCCCCCC2)c(O)c2ccccc21	4%	1.0	-16	4	-8
CCOC(=O)c1c(/N=C/C2=C(O)CC(C)(C)CC2=O)sc2c1CCCC2	-11%	-4.0	x	17	x
CN1CCN(S(=O)(=O)c2ccc(Br)c3nsnc23)CC1	-3%	-0.6	9	-18	-19
C=C(C)Cn1c(SCC(=O)N/N=C/c2c(O)ccc3ccccc23)nc2ccccc2c1=O	5%	-0.4	-28	u	-28
CC1=C(C(=O)OC2CCCCC2)C(c2cccnc2)n2nnnc2N1 (stereo not given)	-4%	1.1	11	2	-31
Cc1cccc(C)c1NC(=O)c1cnn(-c2ccccc2)c1C	x	0.0	x	-5	x
O=C(Cc1c(F)cccc1Cl)Nc1cc(S(=O)(=O)N2CCCCC2)ccc1N1CCOCC1	9%	1.0	x	-2	x
CCN(CC)N=Nc1ccc(C(=O)O)cc1	-13%	-1.2	4	-2	-18
Cc1cccc(OCCCC(=O)NC2CCCCC2)c1	x	0.0	x	0	x

A few values from above:
Mtb betalactam, COc1ccc(/C=C/c2ccc3cccc(O)c3n2)cc1Br is entered as 78
Mtb H37Rv, C#CCOc1ccc(C2C3=C(COC3=O)Nc3cc4c(cc32)OCO4)cc1OC (stereo not given) is entered as 5%

Additional compounds
SMILES	Mtb H37Rv	RecA intein inh	Arbovirus anti	Mtb betalactam	YopH PTP inh
N#CNC(N)=Nc1cccc(Cl)c1	-1%	1.1	20	47	-45
CC(=O)Nc1ccc(Nc2ncnc3ccccc23)cc1	-4%	0.6	x	-1	x
CCc1cc2c(Nc3ccccc3O)nc(C)nc2s1	x	-0.2	x	-5	x
O=[N+]([O-])c1ccc(C(O)CN2CCOCC2)cc1 (stereo not given)	x	-0.3	x	0	x
COc1ccc(Br)cc1CN(C)CC(=O)NCc1ccc(F)cc1	x	-3.7	x	7	x
Cc1[nH]c(=O)[nH]c(=O)c1NC(=O)c1ccc(OC(C)C)cc1	-6%	0.5	2	-3	x
COc1ccc(-c2noc(CN3CCOCC3)n2)cc1OC	7%	0.9	5	-11	-34
COc1ccccc1-n1c(C)nc2cc(C(=O)NCC3CCCO3)ccc21 (stereo not given)	x	4.5	x	u	x
CS(=O)(=O)N1CCN=C1SCc1cccc(F)c1	x	0.5	x	-11	x
Cc1cc(OCC(O)CN2CCCC2)ccc1C(C)C (stereo not given)	x	-0.5	x	-7	x
O=C1c2ccccc2C(=O)C1(CO)c1ccccc1	4%	1.5	-3	22	x
NC(=O)C1CCN(S(=O)(=O)c2cccc(C(=O)O)c2)CC1	-10%	-3.0	3	1	-19
CCCC[C@@H]1C[C@H]1[C@@H](NC(=O)c1ccco1)c1ccccc1C(F)(F)F	-9%	4.2	x	3	x
Cc1ccc(-n2nc3c(c2NC(=O)CC(C)C)CS(=O)C3)cc1 (stereo not given)	x	4.6	x	-8	x
COc1ccccc1CCC(=O)OCC(=O)Nc1cc(S(=O)(=O)N2CCOCC2)ccc1C	x	14	x	2	x
Cc1ccc(/C(O)=C2/C(=O)C(=O)N(c3ccccn3)C2c2ccc([N+](=O)[O-])cc2)cc1 (stereo not given)	x	-3.1	x	-2	x
CC(C)c1nnc(NC(=O)c2nc(S(=O)(=O)Cc3ccccc3F)ncc2Cl)s1	x	83*	x	1	x
COc1ccccc1CNC(=O)C1CCN(S(=O)(=O)c2ccc3c(c2)OCCCO3)CC1	-1%	0.9	4	1	-18
COC(=O)CC1NCCNC1=O (stereo not given)	-6%	-1.2	0	-5	-12
O=C(NC1CCS(=O)(=O)C1)c1cn(-c2ccccc2)nc1-c1ccccc1 (stereo not given)	-6%	0.8	2	-4	-39
COc1ccc(C(=O)N2CCNC(=O)C2CC(=O)Nc2cc(Cl)ccc2OC)cc1 (stereo not given)	x	0.3	x	1	x
O=C(O)CC(c1cccc(O)c1)N1Cc2ccccc2C1=O (stereo not given)	x	0.2	x	-5	x
Cc1ccc(S(=O)(=O)N(C)C)cc1NC(=O)C1Cc2ccccc2CN1C(=O)c1ccco1 (stereo not given)	x	0.5	x	2	x
O=C(CN1C(=O)c2cccc3cccc(c23)C1=O)NCCN1CCOCC1	1%	4.6	5	2	x
Cc1nc2ccccn2c1C(=O)NNC(=S)Nc1ccc(Cl)cc1	-6%	1.9	-3	-2	-20
Cc1oc(C)c2c(=O)ccc3c(c12)OC(N)=C(C#N)C3c1ccc(F)cc1 (stereo not given)	8%	-1.8	-2	95	-30
CCNC(=O)COC(=O)/C=C/c1c(C)nn(Cc2cccc(OC)c2)c1Cl	-1%	-2.5	2	4	x
Cc1ccnc(NS(=O)(=O)c2ccc(NC(=O)c3ccc([N+](=O)[O-])s3)cc2)n1	74%	-2.6	-26	5	x
O=C(NC(=S)Nc1ccccc1)c1cc(-c2ccccc2)nc2ccccc12	-5%	5.2	4	80	-9
Cc1ccccc1NC(=O)c1c(C)nn(-c2ccccc2)c1Cl	1%	-2.4	-2	7	-28
CC(=O)c1ccccc1NS(=O)(=O)c1ccccc1Cl	-12%	-0.3	-3	-5	x
COc1cccc(N=Cc2ccc(O)cc2O)c1	-6%	-2.7	1	-6	-26
COc1ccc2sc3c(=O)[nH]c4ccccc4c3c2c1	4%	5.1	-11	-3	-7
CC(C)CCNC(=O)NC(=O)COC(=O)/C=C/c1cccc([N+](=O)[O-])c1	8%	3.8	1	1	x
c1ccc2[nH]c(SCc3cscn3)nc2c1	-6%	1.1	2	-7	1
Cc1cc(N2CCN(C)CC2)nc2ccc(NC(=O)CCC(=O)NCCC3=CCCCC3)cc12	x	x	x	2	-4
CN1C(=S)NC(C)(C)CC1(C)c1ccc(O)cc1O (stereo not given)	9%	-2.8	-3	-9	-24
